# PKD1 kinase inh: PKD1 (human) kinase inhibition; Q15139; PKD1 kinase fluorescence polarization assay; inhibition, %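 (about 10 µM by stock and volumes)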; 0.056% of 200,000 active;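 active = inhibition of 50% or more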;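 note: controls were vehicle for no effect and a reference inhibitor for full effect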
# Target sequence (Q15139 whole entry, looked up): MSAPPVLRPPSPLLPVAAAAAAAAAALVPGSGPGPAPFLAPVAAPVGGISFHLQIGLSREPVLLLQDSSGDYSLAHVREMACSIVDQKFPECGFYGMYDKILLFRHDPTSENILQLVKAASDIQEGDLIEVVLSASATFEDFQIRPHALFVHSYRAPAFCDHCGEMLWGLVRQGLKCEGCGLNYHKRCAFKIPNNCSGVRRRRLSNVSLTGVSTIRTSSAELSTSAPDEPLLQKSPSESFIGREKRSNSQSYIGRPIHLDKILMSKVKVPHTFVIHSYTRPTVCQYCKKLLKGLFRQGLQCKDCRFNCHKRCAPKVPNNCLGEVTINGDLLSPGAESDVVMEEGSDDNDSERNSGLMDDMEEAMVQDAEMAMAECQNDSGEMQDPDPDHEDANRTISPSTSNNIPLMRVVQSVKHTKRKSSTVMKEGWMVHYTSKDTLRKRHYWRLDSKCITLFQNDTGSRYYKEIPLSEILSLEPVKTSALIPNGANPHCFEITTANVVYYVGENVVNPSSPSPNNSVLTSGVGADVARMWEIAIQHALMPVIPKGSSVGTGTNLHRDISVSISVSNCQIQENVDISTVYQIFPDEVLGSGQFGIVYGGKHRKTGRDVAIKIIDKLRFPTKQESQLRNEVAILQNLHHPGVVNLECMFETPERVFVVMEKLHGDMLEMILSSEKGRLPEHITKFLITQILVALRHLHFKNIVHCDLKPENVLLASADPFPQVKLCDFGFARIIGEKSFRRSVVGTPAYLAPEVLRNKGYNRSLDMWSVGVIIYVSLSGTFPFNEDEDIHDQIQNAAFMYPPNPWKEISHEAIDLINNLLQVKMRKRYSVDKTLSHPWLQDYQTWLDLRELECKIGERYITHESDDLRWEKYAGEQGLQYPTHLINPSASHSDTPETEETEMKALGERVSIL
# GALR2 agonist: agonists of human galanin receptor 2 (GALR2); 0.48% of 140,000 active; O43603; activation, %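 (tested at 5 µM)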; GALR2-expressing cells, agonist activation read-out;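 active = above mean plus 3 SD of all compounds, about 5% in these data, not always enough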;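 note: 0% = vehicle buffer wells and 100% = reference agonist at full effect; tested in CHO reporter cells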
# HSV replic up: increases HSV replication in cells | 0.005% of 220,000 active | HSV replication augmentation in cells, fold increase | maximum fold increase;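 active = peak rise of 1.5-fold or more in the series; tested in PC3 cells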;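 note: first round at 10 µM; read as green reporter fluorescence; hits show the peak of a series up to 25 µM; 1 = signal of infected wells without compound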
# RGS16-Gao HTS: RGS16-Galphao interaction regulator (human) | O15492+P09471 | bead-based flow cytometry RGS16-Galphao binding, fluorescence; actives lie on both sides | binding response (% of control), % at 10 µM | 0.38% of 220,000 active | AID 1441;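 active = below 25% or above 175%, edge rows of some plates excepted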;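 note: Galphao activated by GDP with aluminum fluoride before binding; 100% = wells without compound and 0% = beads without RGS; some results beyond the cut were filed as inactive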
# Insulin prom inh: TRM-6 insulin promoter activity inhibition; TRM-6 cells (human fetal islet line), insulin promoter-eGFP reporter, imaging; reporter expression induced with tamoxifen; 0.9% of 130,000 active; AID 1273; inhibition, % at 2 µM;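 active = inhibition above the mean plus 3 SD, with well images judged a real hit on visual review, cut at about 60% in these data, passing the limit was not always enough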
# Insulin prom inh cell count: also measured in Insulin prom inh; calls as there; normalized cell count, %; measured here: cell count, toxicity; reference of the scale not given here;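 cells exposed to compound for 48 h; stained nuclei by imaging scaled within each plate; lower means fewer cells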
# HSV replic up primary fold: second read-out of HSV replic up, no call of its own (marks repeat the call); fold increase; compound at 10 µM; measured here: primary screen fold increase 10 uM; tested in PC3 cells;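 GFP signal in the first replicate; 1 = infected wells without compound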
# An asterisk follows results filed as active; i = inactive; . = no result given.
SMILES,PKD1 kinase inh,GALR2 agonist,HSV replic up,HSV replic up primary fold,RGS16-Gao HTS,Insulin prom inh,Insulin prom inh cell count
CCOC(=O)CSc1nc(C(C)C)nc2sc(C)c(C)c12,6,.,i,0.99,103,.,.
O=P1(Nn2cnnc2)C=C(c2ccccc2)OC(c2ccccc2)=C1,-11,2.7,i,0.81,54,3,207
CC(=O)Nc1ccc(S(=O)(=O)N2CCc3c(Cl)cccc3C2)cc1,2,-1.0,i,1,101,.,.
C#CCN1C(=O)C(O)(CC(=O)/C=C/C=C/c2ccccc2)c2ccccc21 (configuration not stated),-2,.,i,0.95,112,-73,112
COCCCNC(=O)C(=O)NC1CCCCC1C (configuration not stated),10,.,i,0.89,114,-5,118
O=[N+]([O-])c1ccccc1S(=O)(=O)Oc1ccc(C(=S)N2CCOCC2)cc1,-3,0.1,i,0.99,108,-7,98
O=C(CO/N=C1\CCCc2nonc21)Nc1ccccc1Cl,-5,-2.0,i,0.88,99,20,122
O=C(CN1C(=O)C2CC=CCC2C1=O)Nc1nc2ccccc2[nH]1 (configuration not stated),-17,-1.3,i,0.83,104,.,.
CCCN(CCC)S(=O)(=O)c1ccc(C(=O)O)cc1,7,-0.3,i,0.95,.,0,135
Cc1cc(NS(=O)(=O)c2ccc(NC(=O)CSc3nc4ncc(Cl)cc4[nH]3)cc2)nc(C)n1,.,.,i,1.4,101,.,.
O=C1C(=O)N(C2CCCC2)C(=O)N1Cc1c(F)cccc1Cl,-4,.,i,0.99,97,27,68
Cc1ccc(C(=O)NC(=S)NNC(=O)COc2ccccc2C)cc1,-3,.,i,1,99,.,.
COC(=O)C1=C(N)c2c(F)cccc2C1(C#N)c1ccc(F)cc1 (configuration not stated),-7,-4.1,i,0.84,104,50,69
NC(=O)Cn1c(=O)n(Cc2ccco2)c(=O)c2c3c(sc21)CCCCC3,2,-2.9,i,0.92,95,36,86
Cc1ccccc1OCc1nnc(SCC(=O)Nc2ccc3c(c2)OCO3)n1C,-2,-0.8,i,0.82,96,12,75
COc1cc(C2N(c3cc(C)on3)C(=O)C3CCCN32)cc(OC)c1OC (configuration not stated),-9,-2.7,i,1.1,111,43,88
COc1ccc(N2C(=O)CC(N3CCC(O)(c4ccc(Br)cc4)CC3)C2=O)cc1 (configuration not stated),-10,-1.4,i,1.1,110,22,71
Cc1nc(SCC(=O)Nc2ccnc3ccccc23)n[nH]1,7,-0.9,i,0.91,104,34,115
Clc1ccc(C2=Nn3c(nnc3-c3cccnc3)SC2)s1,3,-0.7,i,0.99,91,-23,81
O=S(=O)(Cc1ccccc1Cl)NCc1ccccc1,-2,.,i,0.88,101,0,131
CCc1ccc2c(COC(=O)c3n[nH]c4ccccc34)cc(=O)oc2c1,-4,-2.2,i,0.96,269,.,.
CCc1ccccc1NC(=S)NN,-7,.,i,0.77,102,.,.
O=C(c1cc(-c2ccc(Cl)c(Cl)c2)on1)N1CCN(c2ccccc2)CC1,13,-1.8,i,1.1,105,.,.
N/C(=N\OC(=O)c1ccc(F)cc1)c1ccccc1,-8,-2.8,.,.,124,-10,136
Cc1cc(=O)n2c(n1)SCOC2,.,.,i,1,94,.,.
COc1cccc(NC(C(=O)Nc2cccc(C(C)=O)c2)c2ccccc2)c1 (configuration not stated),-4,-1.2,i,1,110,-26,99
O=C(Nc1ccccc1F)c1ccccc1-c1ccc(C(F)(F)F)cc1,-9,-0.5,i,1.2,113,-10,136
O=C(/C=C/c1cccnc1)c1ccccc1O,.,.,i,0.83,93,.,.
Fc1ccccc1CCNc1nnnn1-c1ccccc1,-5,-2.0,i,0.99,101,-4,114
CCn1nnnc1-c1ccc(OC)c(S(=O)(=O)NCc2ccccc2)c1,1,-1.2,i,1,100,-25,91
COc1ccc(NC(=S)NCC(c2ccco2)N2CCCC2)cc1 (configuration not stated),-8,.,i,0.93,102,-3,81
Cc1ccc(CNC(=O)C2(C)Oc3ccccc3NC2=O)cc1 (configuration not stated),-2,1.4,i,1.1,73,12,86
COc1ccc(-c2csc(Nc3ccc(S(N)(=O)=O)cc3)n2)cc1,-4,-0.5,i,0.84,100,.,.
C/C(=N/OC(=O)c1ccccc1)c1oc(C)nc1C,.,.,i,1.1,125,.,.
CCc1ccc(S(=O)(=O)NCCc2cn3cccc(C)c3n2)s1,-3,.,i,1,103,-12,87
Cc1ccc2nc(SC(C)C(=O)N3CC(C)OC(C)C3)[nH]c2c1 (configuration not stated),-6,.,i,1.1,103,.,.
Cc1ccc(O)c(CNc2cccc3cccnc23)c1,5,.,i,0.93,72,-113,115
Cc1ccc(CNC(=O)c2cc(C)nn2-c2ccccc2)cc1,.,.,i,0.91,102,.,.
COC(=O)NNC(=O)c1ccccc1C,2,-2.6,i,0.97,102,-9,73
CC(=O)Nc1ccc(S(=O)(=O)N(C)CC(=O)NC2=NCCS2)cc1,-3,-1.6,i,0.94,71,.,.
CCCCN1C(=O)/C(=C2/C=CC=CN2C)SC1=S,-3,-1.6,i,0.9,101,26,121
Cc1nc(Cl)sc1C(=O)Nc1ccc(Cl)cc1,-10,-0.2,i,1,93,.,.
CCO/C(C)=N/n1c2nc3ccccc3nc2c2c(=O)n(Cc3ccccc3Cl)c(C)nc21,-2,-1.2,i,0.91,100,27,92
COc1cc(Cl)c(C)cc1NC(=O)CCCn1c(=O)oc2ccccc21,-5,-0.4,i,1,106,-30,86
COc1cc(OC)cc(-c2cc3nc(C)c(CCC(=O)O)c(C)n3n2)c1,-16,-1.8,i,0.77,103,.,.
COC(=O)c1ccc(NC(=O)CCS(=O)(=O)c2ccc(Br)cc2)cc1,3,.,i,1,102,14,107
CC(C)Cc1ccc(C(C)C(=O)N2CCOCC2)cc1 (configuration not stated),-7,-1.2,i,0.82,94,-41,116
CC(C(=O)NCC1CCCO1)n1cccc1C(=O)c1ccccc1 (configuration not stated),-12,-0.8,i,0.92,99,.,.
COC(=O)Cc1[nH]nc2c1C1(CCSCC1)C(C#N)=C(N)O2,-4,-1.2,i,0.89,96,21,86
O=C(NC1CCCCCCC1)c1cc(-c2ccccn2)nc2ccccc12,5,.,i,0.97,99,-47,125
Cc1ccc(-c2nn(CC(=O)N(C)C)c(=O)c3ccccc23)cc1S(=O)(=O)N(C)C,-4,0.3,i,1,108,44,88
COc1ccc(/C=C(/NC(=O)c2ccc(C)cc2)C(=O)NCC2CCCO2)cc1 (configuration not stated),4,.,i,0.98,100,-31,83
CN(CC(=O)Nc1nc2ccccc2s1)S(=O)(=O)c1ccc(Cl)cc1,-1,-0.6,i,0.87,79,-25,79
CC1CCC(NC(=O)COc2ccc(C(=O)c3ccccc3)cc2)CC1 (configuration not stated),-5,-0.7,i,1,70,-60,38
Cc1nc2cccc(C)n2c(=O)c1Cl,5,-1.6,i,0.9,94,-14,111
COc1ccccc1CC1(C)NC(=O)N(CC(=O)N2CC(C)OC(C)C2)C1=O (configuration not stated),4,-2.8,i,0.96,93,.,.
CC(OC(=O)CNC(=O)c1ccc2c(c1)OCO2)C(=O)NCCC1=CCCCC1 (configuration not stated),-3,-1.8,i,1.1,108,.,.
Cc1ccccc1N1C(=O)[C@@H]2Cc3ccccc3CN2C1=O,-4,-1.1,i,0.97,105,50,88
Cc1cccc2nc(CSc3nc4ccc([N+](=O)[O-])cc4[nH]3)cn12,15,0.1,i,1.1,102,-92,118
Cc1nnc(SCc2ccccc2C#N)n1-c1ccccc1,-10,-0.6,i,0.82,101,-93,110

# (list continues)
SMILES,PKD1 kinase inh,GALR2 agonist,HSV replic up,HSV replic up primary fold,RGS16-Gao HTS,Insulin prom inh,Insulin prom inh cell count
CCCCC(=O)Nc1ncc2c(n1)CC(C)(C)CC2=O,3,0.7,i,0.93,102,6,115
Cc1ccc(NCc2ccncc2)c(Br)c1,-2,.,i,0.96,101,.,.
Cn1cccc1C(=O)OCC(=O)Nc1ccc2c(c1)OCO2,-9,.,i,1.1,97,.,.
COCc1cc(=O)n2[nH]c(C(C)(C)C)cc2n1,.,.,i,1,103,.,.
COC(=O)NCC1(C)CC(NC(=O)OC)CC(C)(C)C1 (configuration not stated),-18,-1.8,i,0.86,104,0,145
COc1cc(OC)c2c(c1)C(=O)OC2OC (configuration not stated),.,.,i,0.98,97,.,.
O=C(c1ccncc1)N1CCN(C(=O)c2ccncc2)CC1,-1,-0.4,i,0.94,98,-32,142
C=CCOc1c(Br)cc(C2NC(=O)NC(C)=C2C(C)=O)cc1OCC (configuration not stated),-5,-1.8,i,0.97,106,-51,210
C=CCOC(=O)C1=C[C@@H](c2coc3ccccc3c2=O)C[C@@H](OCc2ccc(CO)cc2)O1,-4,.,i,0.84,92,.,.
CC(c1ccco1)N(C(=O)c1ccccc1NS(=O)(=O)c1ccc(Cl)cc1)c1ccccn1 (configuration not stated),18,-1.3,i,1.1,90,.,.
CCOC(=O)CSc1ncc(-c2cccc(Cl)c2)cn1,-10,-1.9,i,1.1,100,22,114
O=C(Nc1ccc(Cl)cc1Cl)c1csc(-c2cccnc2)n1,.,.,i,1.1,95,.,.
Cc1ccc(/C=N/Nc2nc(C)cc(C)n2)cc1,.,.,i,1,99,.,.
CCO[C@@H]1OC(C(=O)NCc2nc3ccccc3[nH]2)=C[C@H](C2CC2)[C@H]1CCCO,5,.,i,0.67,101,.,.
CCS(=O)(=O)N1CCCC(C(=O)NC2CCCCC2)C1 (configuration not stated),-8,-1.1,i,1.1,98,-42,128

# Taken from above:
# Entry for CCO[C@@H]1OC(C(=O)NCc2nc3ccccc3[nH]2)=C[C@H](C2CC2)[C@H]1CCCO in HSV replic up primary fold: 0.67
# Entry for COc1cc(OC)c2c(c1)C(=O)OC2OC (configuration not stated) in RGS16-Gao HTS: 97
# Entry for Cc1cc(NS(=O)(=O)c2ccc(NC(=O)CSc3nc4ncc(Cl)cc4[nH]3)cc2)nc(C)n1 in RGS16-Gao HTS: 101
# Entry for CCc1ccc2c(COC(=O)c3n[nH]c4ccccc34)cc(=O)oc2c1 in RGS16-Gao HTS: 269
# Entry for COC(=O)Cc1[nH]nc2c1C1(CCSCC1)C(C#N)=C(N)O2 in Insulin prom inh cell count: 86

# (continued)
SMILES,PKD1 kinase inh,GALR2 agonist,HSV replic up,HSV replic up primary fold,RGS16-Gao HTS,Insulin prom inh,Insulin prom inh cell count
O=C(O)c1cncc(C#CCC2CCCCC2)c1,.,.,i,0.93,89,.,.
Cc1nc2ccc(NC(=O)c3sccc3C)cc2s1,-2,1.3,i,0.93,97,0,176
Cc1c(NC2=CC(=O)CC(C)(C)C2)ccc([N+](=O)[O-])c1C,1,0.5,i,1.1,105,-42,106
Cc1cc(C(=O)O)ccc1-c1ccc(CO)o1,0,.,i,0.92,95,.,.
Cc1ccc(Nc2nc(Cl)c(C=O)s2)cc1Cl,-5,.,i,1.1,99,.,.
O=S(=O)(NCc1ccccc1)c1ccc(S(=O)(=O)N(Cc2ccccn2)Cc2ccco2)cc1,1,0.1,i,0.82,99,.,.
CCn1c(-c2csc3c2CCCC3)n[nH]c1=S,-15,0.9,i,1.1,100,26,120
CCOC(=O)N1CCN(C2CC(=O)N(c3ccc(Oc4ccccc4)cc3)C2=O)CC1 (configuration not stated),-7,-1.0,i,1,100,-11,88
CC1(C)CC(N2CCCCC2)=CC(=[N+]2CCCCC2)C1,-1,.,i,0.99,99,29,92
Cc1noc(C)c1/C=N/Nc1ccc2ccccc2n1,4,.,i,1,100,.,.
CCC(C)NS(=O)(=O)c1ccc(OC)c(Cl)c1Cl (configuration not stated),-1,-2.0,i,0.99,108,14,148
CC1CN(C(=O)CSc2nnc(-c3ccc(Cl)cc3)n2C)CC(C)O1 (configuration not stated),-6,-0.4,i,0.86,104,-31,54
c1ccc(-c2nn3c(C4CCCCC4)nnc3s2)nc1,16,-0.8,i,0.99,69,56,135
S=C(NCCN1CCOCC1)NC1CCCC1,0,.,i,1,103,.,.
CNC(=O)Nc1ccccc1C(=O)NCc1ccccc1,4,-2.9,i,0.85,100,4,90
Cc1ccc(C(=O)C2CCN(CC(=O)Nc3nc(C)cs3)CC2)cc1,2,-2.2,i,0.95,105,.,.
CN1CCN(CC(=O)Nc2nnc(-c3cccs3)s2)CC1,-6,0.7,i,0.98,101,-14,91

# In a second layout: entries from further up
Molecule	PKD1 kinase inh	GALR2 agonist	HSV replic up	HSV replic up primary fold	RGS16-Gao HTS	Insulin prom inh	Insulin prom inh cell count
O=C(/C=C/c1cccnc1)c1ccccc1O	.	.	i	0.83	93	.	.
Fc1ccccc1CCNc1nnnn1-c1ccccc1	-5	-2.0	i	0.99	101	-4	114
CCn1nnnc1-c1ccc(OC)c(S(=O)(=O)NCc2ccccc2)c1	1	-1.2	i	1	100	-25	91
COc1ccc(NC(=S)NCC(c2ccco2)N2CCCC2)cc1 (configuration not stated)	-8	.	i	0.93	102	-3	81
Cc1ccc(CNC(=O)C2(C)Oc3ccccc3NC2=O)cc1 (configuration not stated)	-2	1.4	i	1.1	73	12	86
